Screening data (PubChem BioAssay)
Arbovirus inh: blocks arbovirus infection; inhibition, % at 10 µM; 200,000 compounds, 0.37% hits; arbovirus infection cell-based antiviral screen;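 active = inhibition from about 30%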;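 also: bluetongue infection of BSR cells; cell survival read as ATP light after 72 h; 0% = infected wells without compound and 100% = uninfected wells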
Mtb betalactam: beta-lactam sensitization of Mtb H37Rv; M. tuberculosis H37Rv growth with meropenem, percent inhibition; hits of this screen are not shown here; inhibition, % at 25 µM; 330,000 compounds, 0.27% hits; AID 434955;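 active = about 74% or more and at least 40 points above the plate without the antibiotic, then above 30% in a dose series; inconclusive = first-round hits that could not be retested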;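 also: growth measured after seven days incubation then overnight dye step; 0% = bacteria only wells and 100% = bacteria with antibiotic; twin plates without the antibiotic show which effects depend on it; some results filed as inactive read as strong as hits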
RecA intein inh: Mtb RecA intein splicing inhibition; P9WHJ3; inhibition, %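 (about 9 µM by stock and volumes)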; 290,000 compounds, 0.75% hits; cell-free RecA intein splicing, fluorescence; in the data active = inhibition above about 30%; inconclusive = no clear call, values can overlap the other calls;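 also: 0% = vehicle wells and 100% = reference inhibitor control wells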
Target sequence (P9WHJ3 whole entry, looked up): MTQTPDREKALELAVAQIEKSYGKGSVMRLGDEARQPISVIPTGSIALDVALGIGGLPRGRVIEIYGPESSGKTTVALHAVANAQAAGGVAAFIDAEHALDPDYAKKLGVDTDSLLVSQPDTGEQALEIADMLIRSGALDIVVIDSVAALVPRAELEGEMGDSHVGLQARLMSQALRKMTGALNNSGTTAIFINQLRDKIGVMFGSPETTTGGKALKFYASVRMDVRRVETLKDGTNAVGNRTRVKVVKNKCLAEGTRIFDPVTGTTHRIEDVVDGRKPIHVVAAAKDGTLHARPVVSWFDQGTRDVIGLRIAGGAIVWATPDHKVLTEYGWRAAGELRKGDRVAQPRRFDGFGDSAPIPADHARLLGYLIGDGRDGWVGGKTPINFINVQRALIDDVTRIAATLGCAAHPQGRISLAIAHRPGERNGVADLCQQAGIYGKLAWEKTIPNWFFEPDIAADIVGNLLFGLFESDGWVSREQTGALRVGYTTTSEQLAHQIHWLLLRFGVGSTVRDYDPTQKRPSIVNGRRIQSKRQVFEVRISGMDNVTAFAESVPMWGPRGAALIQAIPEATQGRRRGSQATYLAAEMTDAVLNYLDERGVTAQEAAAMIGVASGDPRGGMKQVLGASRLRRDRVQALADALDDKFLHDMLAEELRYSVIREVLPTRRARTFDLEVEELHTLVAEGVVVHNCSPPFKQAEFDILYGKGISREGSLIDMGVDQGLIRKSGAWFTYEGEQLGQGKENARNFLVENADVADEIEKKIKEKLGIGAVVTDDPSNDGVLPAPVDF
YopH inh: YopH (Yersinia) phosphatase inhibition; inhibition, %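 (about 10 µM by stock and volumes)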; fluorescence Ex485/Em525; 140,000 compounds, 0.16% hits;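 active = inhibition of 50% or more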;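 also: controls were vehicle for no effect and minimum signal wells for full effect; inactives centre near -20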
Mtb growth: M. tuberculosis H37Rv growth inhibitors, H37Rv strain (AID 1626) | one-dose inhibition, % at 10 µM; IC50 in µM for titrated hits | 220,000 compounds, 0.95% hits | M. tuberculosis H37Rv growth inhibition; higher % means a stronger effect;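 active = confirmed in a dose series; inconclusive = inhibition above 80% but not taken into the dose series; inactive = below 80% or under 30% at every dose of the series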;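 also: bacteria incubated seven days before Alamar blue readout; 0% = bacteria only wells and 100% = bacteria with antibiotic wells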
* hit, by the source's call; ? = inconclusive; . = no result given. These rows are one share of the data, so the mix of outcomes need not match the whole.

SMILES | Arbovirus inh | Mtb betalactam | RecA intein inh | YopH inh | Mtb growth
CC(C)(C)NS(=O)(=O)c1ccc(CCC(=O)NCc2cccnc2)cc1 | 4 | 6 | 4.8 | -12 | -2%
O=C(N/N=C/c1ccco1)c1ccc(N2CCCC2=O)cc1 | 0 | 7 | -0.2 | -25 | -6%
Cc1noc(C)c1NC(=O)NCCN1CCN(Cc2ccccc2)CC1 | . | -5 | 0.8 | . | -12%
Cc1nn(C)c(C)c1NC(=O)c1ccnn1C | 7 | -2 | 2.4 | 9 | -2%
Cc1ccc(CNC(=O)Cn2ncn3cccc3c2=O)cc1 | . | -2 | -3.9 | . | .
CCCCC(CCC(=O)O)(C(=O)OCC)c1csc(Nc2ccc(C)cc2)n1 (stereo not given) | -2 | 9 | 1.0 | . | -1%
CCn1c(SCC(=O)Nc2ccccc2Cl)nnc1C1CC1 | . | -4 | 1.4 | . | .
CCCc1nnc(NC(=O)C2CC(=O)N(CCc3ccc(F)cc3)C2)s1 (stereo not given) | . | 3 | -1.0 | . | .
CCc1nnc2sc(-c3ccc(NC(=O)c4ccc5c(c4)OCCO5)cc3)nn12 | 23 | 10 | -0.7 | -13 | 0%
CCCCn1nc(C(=O)O)ccc1=O | 8 | 2 | -1.5 | -36 | -5%
O=C(Nc1nc2ccccc2s1)c1c(F)cccc1Cl | . | 2 | -0.6 | . | .
Cn1cnnc1SCc1ccc(C(=O)N/N=C(\CCC(=O)O)c2ccc(C(C)(C)C)cc2)cc1 | -1 | -1 | . | -36 | 1%
O=C(Nc1nccs1)C1CC=CCC1 (stereo not given) | . | -3 | 0.0 | . | .
Cc1ccc(SCc2cn3ccccc3n2)cc1 | . | -2 | -0.8 | . | -2%
O=C(Nc1cccc(Cl)c1)NC1CCS(=O)(=O)C1 (stereo not given) | . | -3 | -0.5 | . | .
C=CCN1C(=O)C2(OCCCO2)c2cc(C)ccc21 | . | 1 | -0.3 | . | .
OCCNCCCCOc1ccccc1F | -3 | -1 | 1.1 | 27 | -4%
Cc1ccc(S(=O)(=O)NC(C)C(=O)N2CCOCCOCCOCC2)cc1 (stereo not given) | . | -6 | -1.1 | . | .
Cc1cc2c(cc1S(=O)(=O)NC1CCCCC1C)OCC(=O)N2 (stereo not given) | . | 4 | -0.9 | . | .
O=C(CCn1c(=O)sc2ccccc21)Nc1ccon1 | 7 | 1 | 0.6 | 33 | 4%
COC(=O)c1ccc(/C=C2/SC(=S)N(CCC(=O)N3CCOCC3)C2=O)cc1 | . | 12 | -0.7 | . | .
O=c1c2ccccc2nnn1CSc1nc2ccccc2c(=O)n1CCCO | 4 | 13 | 1.8 | . | 0%
FC(F)(F)c1nnc2sc(-c3ccco3)nn12 | 0 | 5 | -3.9 | -12 | -15%
CC(C)c1nnc(NC(=O)C2CCN(S(=O)(=O)c3ccc(-n4cnnn4)cc3)CC2)s1 | -3 | -5 | . | . | -3%
O=C(COc1ccccc1[N+](=O)[O-])N/N=C/c1cccs1 | -8 | 6 | 1.9 | -32 | 0%

An excerpt of these results, as a markdown table.
| smiles | Arbovirus inh | Mtb betalactam | RecA intein inh | YopH inh | Mtb growth |
| --- | --- | --- | --- | --- | --- |
| CCCc1nnc(NC(=O)C2CC(=O)N(CCc3ccc(F)cc3)C2)s1 (stereo not given) | . | 3 | -1.0 | . | . |
| CCc1nnc2sc(-c3ccc(NC(=O)c4ccc5c(c4)OCCO5)cc3)nn12 | 23 | 10 | -0.7 | -13 | 0% |
| CCCCn1nc(C(=O)O)ccc1=O | 8 | 2 | -1.5 | -36 | -5% |
| O=C(Nc1nc2ccccc2s1)c1c(F)cccc1Cl | . | 2 | -0.6 | . | . |
| Cn1cnnc1SCc1ccc(C(=O)N/N=C(\CCC(=O)O)c2ccc(C(C)(C)C)cc2)cc1 | -1 | -1 | . | -36 | 1% |
| O=C(Nc1nccs1)C1CC=CCC1 (stereo not given) | . | -3 | 0.0 | . | . |
| Cc1ccc(SCc2cn3ccccc3n2)cc1 | . | -2 | -0.8 | . | -2% |

More records
SMILES | Arbovirus inh | Mtb betalactam | RecA intein inh | YopH inh | Mtb growth
Brc1ccc(-c2csc(N3CCOCC3)n2)cc1 | 5 | -5 | 0.6 | . | -8%
COc1ccccc1CNC(=O)N[C@@H](Cc1ccccc1)C(=O)O | -1 | 5 | -1.8 | 32 | -13%
Cc1cc(S(=O)(=O)NCc2ccc(N3CCN(C)CC3)cc2)c(C)s1 | . | 8 | . | . | -2%
CN(C)CCNS(=O)(=O)c1ccc(N2CCc3ccccc32)c([N+](=O)[O-])c1 | . | -6 | 0.4 | . | .
O=C(NCCOCCOCCNC(=O)c1cccnc1)c1cccnc1 | 0 | -4 | -2.0 | -49 | -5%
O=C(Nc1ccc(OCC(F)(F)C(F)F)c(C(F)(F)F)c1)c1ccc(Cl)cc1 | . | 8 | -0.9 | -36 | 9%
C=CCn1c(SCC(=O)c2c(N)n(C)c(=O)n(C)c2=O)nnc1-c1ccncc1 | -2 | 12 | -2.6 | . | 0%
CCn1cc(CCC(=O)NCc2ccc(F)cc2)c2ccccc21 | . | 4 | 1.6 | . | .
COc1ccc2c(c1)C(=O)N(c1ccc(C)cc1)C(=O)C2 | 4 | 12 | 4.4 | -15 | 4%
O=C(c1cc2nc(-c3ccco3)cc(C(F)(F)F)n2n1)N1CCN(c2ccccn2)CC1 | 16 | 29 | -11 | 21 | -5%
CC(Sc1nnc(-c2cccs2)n1-c1ccccc1)C(=O)NCc1ccco1 (stereo not given) | -2 | -3 | 0.8 | -15 | -2%
O=C(CN1CCN(S(=O)(=O)c2ccc(Br)cc2)CC1)N/N=C/c1ccncc1 | . | -4 | 1.4 | . | 4%
CC1=C(C(=O)Nc2ccccc2)C(c2cccs2)C(C#N)=C(SCC#N)N1 (stereo not given) | -4 | 35 | -0.7 | -131 | .
COc1ccc(NC(=S)N2CCN(S(C)(=O)=O)CC2)cc1 | . | 1 | -4.5 | . | .
c1cc(Nc2ncnc3sc4c(c23)CCC4)ccn1 | 0 | 1 | -3.3 | . | 6%
O=C(Cc1c[nH]c2ccccc12)Nc1nnc(C2CC2)s1 | 13 | -8 | 1.4 | . | -4%
Cc1ccc(/C=C/C(=O)Nc2ccc(S(N)(=O)=O)cc2)o1 | 4 | 2 | -0.5 | . | -4%
Cc1cccc(CN2CCC(Oc3ccc(C(=O)N4CCCCC4)cc3)CC2)c1 | . | 8 | -3.8 | . | .
O=C(CSCc1ccc(F)cc1)Nc1ccccc1C(=O)N1CCOCC1 | 0 | 1 | -4.3 | -2 | -4%
COCCCn1nnnc1SCC(=O)Nc1nc2ccccc2s1 | . | -1 | -2.9 | . | .
O=C(NCC(=O)N1CCCC1)c1cccs1 | -6 | 4 | 0.1 | -20 | -2%
Cc1cc(C)c2oc(=O)cc(CN3CCN(Cc4ccccc4)CC3)c2c1 | . | ? | -0.3 | . | .
COc1ccc(/C=N/NC(=O)Cn2c(Cc3ccc(OC)c(OC)c3)nc3ccccc32)cc1 | 8 | 1 | 1.9 | -2 | -3%
CCOc1ccc(NC(=O)CC2C(=O)N(C)C(=S)N2Cc2ccco2)cc1 (stereo not given) | 2 | 1 | 2.3 | -24 | 1%
CCOC(=O)c1cc(-c2csc(-c3cccc(Cl)c3)n2)on1 | . | 100 | 1.3 | . | ?
Continued:
SMILES | Arbovirus inh | Mtb betalactam | RecA intein inh | YopH inh | Mtb growth
Cc1nc(C)c(-c2csc(Nc3ccccn3)n2)s1 | . | 0 | -0.3 | . | .
COc1cc(-c2[nH]nc3c2C(c2ccoc2)C(C#N)=C(N)O3)cc(OC)c1OC (stereo not given) | -7 | -2 | . | 5 | -3%
CCC1CCCCN1C(=O)COc1ccc(F)cc1 (stereo not given) | -4 | 5 | 1.8 | . | -3%
CC(C)[C@H](NC(=O)OC(C)(C)C)C(=O)NCC1CCC(C(=O)N[C@@H](Cc2ccccc2)C(=O)O)CC1 (stereo not given in full) | . | 4 | -2.1 | . | .
CCOC(=O)c1cc(-c2ccc(C)cc2)n(CCC(=O)NC(C)CC)c1C (stereo not given) | 6 | 4 | 7.1 | -18 | 3%
CCOC(=O)CNC(=S)NN(C)C | . | 4 | -2.6 | . | -4%
COc1ccc(CCNC(=O)CSc2nc(C)nc3sccc23)cc1OC | . | -3 | 1.9 | . | -9%
O=C(CCNC(=O)Cn1ccc2ccccc2c1=O)NCCCN1CCN(c2ccc(F)cc2)CC1 | -1 | -9 | 0.9 | -13 | -4%
COc1ccccc1N1CCN(c2nc3c(C)cccn3c(=O)c2C=O)CC1 | 3 | -5 | -8.3 | -8 | -5%
CCC(c1nnnn1Cc1ccc(OC)cc1)N(CCCO)Cc1cc2cc3c(cc2[nH]c1=O)OCO3 (stereo not given) | 1 | -9 | 2.5 | -23 | -24%
Fc1ccc(Nc2nc(Oc3ccc4c(c3)OCO4)nc(N3CCOCC3)n2)c(F)c1 | -7 | 1 | 0.4 | -39 | 3%
COc1ccc(/C=C/C(=O)OCc2cccc([N+](=O)[O-])c2)cc1 | 18 | 65 | . | . | 8%
O=C(CCn1c(=O)oc2ccccc21)Nc1nc2ccccc2s1 | 8 | -6 | 5.0 | -10 | 10%
CC(C)OC(=O)COc1ccc(-c2ccccc2)cc1 | 0 | 100 | 11 | -24 | ?
O=C(CNC(=O)c1sc2ccccc2c1Cl)NC1CC1 | . | -3 | 0.0 | . | .
CC1(C)C2CC[C@]1(C)C(=O)N(CCCCN1CCN(c3ccccn3)CC1)C2=O | . | 2 | 0.4 | . | .
O=C(NCC1CCCO1)c1cc(S(=O)(=O)N2CCCC2)c(Cl)cc1Cl (stereo not given) | 1 | -3 | 0.0 | . | 3%
CC(=O)N1CCN(C(=O)c2ccco2)CC1 | . | 3 | -1.5 | . | .
O=C(CSc1nnc(Cc2ccccc2)n1-c1ccc(F)cc1)N1CCOCC1 | 6 | 2 | 6.3 | -29 | -3%
O=C(NCCC1CCCCN1S(=O)(=O)c1ccccc1)C(=O)Nc1ccc(F)cc1 (stereo not given) | . | -2 | -2.8 | . | .
COc1ccc(C)cc1NC(=O)CSc1ccc(-c2ccccn2)nn1 | . | 100 | 1.6 | . | .
CC1CCN(CC(=O)Nc2ccc(N3CCCCCC3)cc2)CC1 | -20 | 0 | -0.7 | . | -2%
CC(C)n1nnc(-c2ccc(OCc3ccccc3F)cc2)n1 | . | 0 | 9.4 | . | .
COCC1CCN(C(=O)c2ccc3oc(Cc4ccccc4)nc3c2)C1 (stereo not given) | . | ? | 2.0 | . | .
CCC(C(=O)OC)n1cnc2scc(-c3ccc(C)c(C)c3)c2c1=O (stereo not given) | . | -3 | 2.9 | . | .
CN(c1ccc(C(=O)NCC2CCCO2)cc1)S(=O)(=O)c1ccccc1 (stereo not given) | 3 | -5 | -0.9 | -50 | -3%
CC(=O)Nc1cccc(C(=O)O)n1 | 4 | 8 | 0.1 | . | 3%
CCOCCCNC(=O)c1c[nH]c2ccc(C)cc2c1=O | 9 | -8 | -3.1 | -4 | -6%
S=C(NC1CCCCC1)N1CCCCC1 | . | 6 | -2.5 | . | 3%
Cc1ccc2cc(C#N)c(SCC(=O)N3CCCc4ccccc43)nc2c1C | -2 | 15 | -1.3 | -31 | .

An excerpt of these results, with each value named:
> O=C(CCNC(=O)Cn1ccc2ccccc2c1=O)NCCCN1CCN(c2ccc(F)cc2)CC1
  Arbovirus inh = -1
  Mtb betalactam = -9
  RecA intein inh = 0.9
  YopH inh = -13
  Mtb growth = -4%

> COCC1CCN(C(=O)c2ccc3oc(Cc4ccccc4)nc3c2)C1 (stereo not given)
  Arbovirus inh = .
  Mtb betalactam = ?
  RecA intein inh = 2.0
  YopH inh = .
  Mtb growth = .

Whole records, quoted from the list. Order of screens: Arbovirus inh | Mtb betalactam | RecA intein inh | YopH inh | Mtb growth
COc1ccc(NC(=S)N2CCN(S(C)(=O)=O)CC2)cc1 as listed: . | 1 | -4.5 | . | .
COCC1CCN(C(=O)c2ccc3oc(Cc4ccccc4)nc3c2)C1 (stereo not given) as listed: . | ? | 2.0 | . | .
COc1ccc(/C=N/NC(=O)Cn2c(Cc3ccc(OC)c(OC)c3)nc3ccccc32)cc1 as listed: 8 | 1 | 1.9 | -2 | -3%
CCn1cc(CCC(=O)NCc2ccc(F)cc2)c2ccccc21 as listed: . | 4 | 1.6 | . | .
CC1CCN(CC(=O)Nc2ccc(N3CCCCCC3)cc2)CC1 as listed: -20 | 0 | -0.7 | . | -2%
